From PubChem BioAssay
AF4-AF9 inh – blocks AF4 peptide binding to human AF9; P42568; AlphaScreen, biotin-AF4 peptide binding to FLAG-AF9; inhibition, % at 10 µM; 350,000 tested, 0.47% active; AID 651704;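 active = every replicate reaching a set inhibition limit, whatever the replicate mean, cut at about 25% in these data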;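 also: 0% = plate neutral control median and 100% = total signal loss; the record names both 10 and 1 µM as test concentration; the first replicate is given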
Target sequence (P42568 whole entry, looked up): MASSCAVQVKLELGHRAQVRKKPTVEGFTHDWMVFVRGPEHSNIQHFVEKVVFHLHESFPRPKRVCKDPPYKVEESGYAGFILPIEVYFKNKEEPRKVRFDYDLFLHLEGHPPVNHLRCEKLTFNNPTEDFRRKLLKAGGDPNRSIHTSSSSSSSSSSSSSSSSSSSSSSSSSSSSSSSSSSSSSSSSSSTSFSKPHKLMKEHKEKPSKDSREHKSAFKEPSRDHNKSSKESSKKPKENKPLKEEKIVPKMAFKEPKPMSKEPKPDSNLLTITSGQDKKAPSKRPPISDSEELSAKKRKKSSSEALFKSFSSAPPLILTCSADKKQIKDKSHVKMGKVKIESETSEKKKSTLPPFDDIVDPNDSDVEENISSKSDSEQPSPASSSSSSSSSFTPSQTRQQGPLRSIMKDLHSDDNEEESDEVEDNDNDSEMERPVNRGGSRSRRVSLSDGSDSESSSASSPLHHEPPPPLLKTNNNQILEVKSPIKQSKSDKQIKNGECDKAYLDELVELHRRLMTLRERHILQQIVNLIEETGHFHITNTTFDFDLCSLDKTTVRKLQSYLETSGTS
FGF22 binding – shifts melting point of recombinant human FGF22; 340,000 tested, 1.5% active; AID 651658; recombinant FGF22 thermal shift, SYPRO orange fluorescence; percent of sucrose octasulfate shift, DMSO zero; calls only at 9.99 µM;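 active = melting point raised past a set limit in the mean and every replicate; three in four hits are not shown here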
Target sequence (Q9HCT0 whole entry, looked up): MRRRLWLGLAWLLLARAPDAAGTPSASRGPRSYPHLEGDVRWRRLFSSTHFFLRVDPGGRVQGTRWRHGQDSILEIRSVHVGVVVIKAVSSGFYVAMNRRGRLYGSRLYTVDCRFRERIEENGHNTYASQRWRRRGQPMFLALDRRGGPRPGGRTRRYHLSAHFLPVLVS
rRNA inh HTS – selective bacterial rRNA inhibition in E. coli; E. coli WT GFP vs humanized-ribosome RFP mutants, fluorescence, 24 h; active compounds read low; DMSO median 0, no signal -100; GFP signal change (wild-type ribosome), % (no concentration beside the values); 350,000 tested, 1.6% active;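 active = significant combined selectivity score with lowered wild-type GFP, culture density cut under 30%, mutant RFP and density less affected; inactive = any of these conditions unmet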; also: one replicate is shown; some compounds called inactive have numbers as strong as hits
rRNA inh HTS OD600 – recorded beside rRNA inh HTS, whose call it bears; OD600 change, %; measured here: OD600 growth;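 optical density of the mix in the first replicate; 0 = DMSO median and -100 = no signal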
rRNA inh HTS RFP – second read-out of rRNA inh HTS, no call of its own (marks repeat the call); RFP signal change, %; measured here: RFP humanized mutant strains;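 first replicate; 0 = DMSO median and -100 = no signal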
* hit, by the source's call; i = inactive; & = joins results of further samples. These rows are one share of the data; the hit share may differ from the screen's.

smiles,AF4-AF9 inh,FGF22 binding,rRNA inh HTS,rRNA inh HTS OD600,rRNA inh HTS RFP
Cc1ccc(S(=O)(=O)N(C)C[C@H]2Oc3c(NC(=O)C4CCOCC4)cccc3C(=O)N([C@H](C)CO)C[C@H]2C)cc1,2.9,i,-5,-3,-2.3
c1csc(-c2nn3c(C4CCCCC4)nnc3s2)c1,-19,i,-9,-8,0.2
O=C(Nc1cccc(C(F)(F)F)c1)c1csc([C@@H]2O[C@H](CO)[C@H](O)[C@H](O)[C@H]2O)n1,0.3,i,10,18,-3.1
CC(C)NC(=O)N1[C@H](C#N)[C@@H](c2ccc(-c3ccc(F)cc3)cc2)[C@H]1CO,-1.0,i,-7,-32,22
CC=Cc1ccc2n(c1=O)C[C@@H]1[C@@H](CO)[C@H](C(=O)N[C@H](C)c3ccccc3)[C@H]2N1Cc1ccccc1 (mixture of isomers),1.0,i,-1,-5,3.4
C[C@@H]1CN([C@H](C)CO)C(=O)c2cc(NC(=O)NC3CCCCC3)ccc2O[C@@H](C)CCCCO[C@@H]1CN(C)Cc1ccncc1,0.1,i,-4,-2,0.7
COc1cccc(C(C(=O)NCc2ccccc2)N2CCN(c3ccccc3F)CC2)c1OC (stereo not given),1.1,i,-28,-25,3.8
CCCNC(=O)[C@@H]1[C@@H](CO)[C@@H]2Cn3c(ccc(-c4cccnc4)c3=O)[C@H]1N2C(=O)Nc1ccccc1,-1.8,i,2,6,-3.4
C[C@@H]1CN([C@H](C)CO)S(=O)(=O)c2ccc(C3=CCCCC3)cc2O[C@@H]1CN(C)C(=O)CC1CC1,1.1,i,-16,-31,-4.3
C[C@H](CO)N1C[C@H](C)[C@@H](CN(C)C(=O)Cc2ccccc2)OCCCC[C@H](C)Oc2ccc(N(C)C)cc2C1=O,3.4,i,-5,-5,0.3
CO[C@H]1CN(C)C(=O)c2cc(NC(=O)c3ccc4c(c3)OCO4)ccc2OC[C@H](C)N(CCC(F)(F)F)C[C@@H]1C,2.7,i,-1,-5,-0.3
COc1ccc(S(=O)(=O)N(C)C[C@@H]2Oc3ccc(NC(=O)C4CC4)cc3CC(=O)N([C@@H](C)CO)C[C@@H]2C)cc1,-7.8,i,0,-6,1.1
C[C@@H]1CN([C@@H](C)CO)C(=O)Cc2cc(NC(=O)Cn3cnnn3)ccc2O[C@@H]1CN(C)CC1CCCCC1,1.1,i,4,5,1.4
Cc1ccc(S(=O)(=O)N(C)C[C@H]2OCc3cnnn3CCCC(=O)N([C@@H](C)CO)C[C@H]2C)cc1,4.5&0.3,i,1&-2,1&6,-0.8&-0.9
C[C@H]1CN([C@@H](C)CO)S(=O)(=O)c2ccc(-c3ccc(C(=O)N(C)C)cc3)cc2O[C@@H]1CN(C)C,-2.9,i,-2,-3,-1.3

Copied from the list:
For AF4-AF9 inh, Cc1ccc(S(=O)(=O)N(C)C[C@H]2Oc3c(NC(=O)C4CCOCC4)cccc3C(=O)N([C@H](C)CO)C[C@H]2C)cc1 has 2.9
For AF4-AF9 inh, C[C@H]1CN([C@@H](C)CO)S(=O)(=O)c2ccc(-c3ccc(C(=O)N(C)C)cc3)cc2O[C@@H]1CN(C)C has -2.9

Further structures follow:
smiles,AF4-AF9 inh,FGF22 binding,rRNA inh HTS,rRNA inh HTS OD600,rRNA inh HTS RFP
CCC(=O)N1CC2(CCN(Cc3cccnc3)CC2)c2c(n(C)c3cc(OC)ccc23)[C@@H]1CO,3.7,i,-2,-1,2.5
Cc1noc(C)c1NC(=O)N[C@H]1CC[C@H](CC(=O)NCCCN(C)C)O[C@@H]1CO,0.2,i,3,3,0.1
C/C=C/c1cnc2c(c1)C(=O)N([C@H](C)CO)C[C@@H](C)[C@@H](CN(C)Cc1cccc(C(=O)O)c1)O2,-4.5,i,2,2,1.3
O=C(C[C@@H]1CC[C@H]2[C@@H](COC[C@H](O)CN2Cc2ccc(Cl)cc2)O1)NCCc1ccccc1,0.5,i,-10,-26,2.9
C[C@H]1CN([C@@H](C)CO)C(=O)c2cccc(NS(=O)(=O)c3ccccc3)c2O[C@@H]1CN(C)C(=O)Nc1ccc(C(F)(F)F)cc1,-2.0,i,-4,-9,-3.9
C=C1C(=O)C2=CC1CCC(=O)C1(C)CCC(OC(C)=O)C(C)(C)C1CC2O (stereo not given),-0.3,i,8,-1,2.5
O=C(C[C@@H]1CC[C@H](NC(=O)Nc2ccccc2F)[C@@H](CO)O1)NCc1ccccc1,3.6,i,-2,3,-1.4
C[C@H](CO)N1C[C@H](C)[C@H](CN(C)S(=O)(=O)c2cccs2)Oc2ccc(NC(=O)NC3CCCCC3)cc2CC1=O,1.5,i,-10,-20,1.8
CN(C)C(=O)C[C@@H]1CC[C@@H]2[C@H](COC[C@@H](O)CN2CC2CCOCC2)O1,-1.8,i,5,13,-2.0
CCCNC(=O)N1CC2(CN(CC3CC3)C2)c2c([nH]c3cc(OC)ccc23)[C@@H]1CO,3.8,i,3,10,-2.6
C[C@H]1CN([C@@H](C)CO)C(=O)c2cc(NC(=O)CCCN(C)C)ccc2O[C@@H]1CN(C)Cc1ccc(Cl)c(Cl)c1,0.7,i,2,-7,3.2
CC(C)CC#Cc1cnc2c(c1)C(=O)N([C@H](C)CO)C[C@@H](C)[C@H](CN(C)CC1CCOCC1)O2,-1.0,i,5,2,-0.4
CCc1nc2ccc(C(=O)NCCN3CCOCC3)cn2c1N(C=O)Cc1ccc(OC)cc1,1.2,i,1,5,-2.4
C[C@@H]1CN([C@@H](C)CO)S(=O)(=O)c2ccc(-c3cccc(C(=O)N(C)C)c3)cc2O[C@@H]1CN(C)C(=O)Cc1ccccn1,-1.4,i,1,7,-1.5
O=C(C[C@H]1C[C@@H]2c3cc(NC(=O)Nc4ccccc4F)ccc3O[C@@H]2[C@@H](CO)O1)NCc1ccncc1,2.9,i,9,23,4.2

Arranged by the number under rRNA inh HTS (smallest number first): 3 of the compounds above
SMILES | rRNA inh HTS
O=C(C[C@@H]1CC[C@H]2[C@@H](COC[C@H](O)CN2Cc2ccc(Cl)cc2)O1)NCCc1ccccc1 | -10
C[C@H]1CN([C@@H](C)CO)C(=O)c2cccc(NS(=O)(=O)c3ccccc3)c2O[C@@H]1CN(C)C(=O)Nc1ccc(C(F)(F)F)cc1 | -4
O=C(C[C@H]1C[C@@H]2c3cc(NC(=O)Nc4ccccc4F)ccc3O[C@@H]2[C@@H](CO)O1)NCc1ccncc1 | 9

(continued)
smiles,AF4-AF9 inh,FGF22 binding,rRNA inh HTS,rRNA inh HTS OD600,rRNA inh HTS RFP
C[C@@H]1CCCCO[C@H](CN(C)Cc2ccc(C(F)(F)F)cc2)[C@@H](C)CN([C@H](C)CO)C(=O)c2cc(NC(=O)NC3CCCCC3)ccc2O1,-1.3,i,2,15,1.2
COc1ccc(S(=O)(=O)N(C)C[C@@H]2Oc3ccc(NC(=O)CCC(F)(F)F)cc3C(=O)N([C@H](C)CO)C[C@@H]2C)cc1,-0.1,i,1,1,3.2
C[C@@H]1CN([C@H](C)CO)C(=O)c2cccc(NS(C)(=O)=O)c2O[C@H]1CN(C)CC1CC1,-4.1,i,3,3,0.0
CCSc1nnc(NC(=O)C2CCCN(C(=O)c3ccc(Cl)cc3)C2)s1 (stereo not given),3.6,i,3,-12,3.1
CC(C)NC(=O)N(C)C[C@H]1Oc2c(NC(=O)CCCCCC(=O)Nc3ccccc3N)cccc2C(=O)N([C@@H](C)CO)C[C@@H]1C,-0.4,i,2,11,2.7
COc1ccc(S(=O)(=O)N[C@H]2CC[C@H](CC(=O)NCCc3ccncc3)O[C@@H]2CO)cc1,-1.3,i,4,4,-2.9
O=C(Nc1ccccc1F)N1C[C@@H]2[C@H](c3ccccc31)[C@@H](CO)N2C(=O)C1CC1,-2.8,i,6,10,0.3
CN(C)c1ccc(CN(CC2CCCO2)C(=O)c2cc3ccccc3o2)cc1 (stereo not given),26*,i,0,-21,-2.7
CC1(C(=O)NS(=O)(=O)c2cccc(C#N)c2)CCN1C(=O)c1ccc(C2CCCCC2)cc1 (stereo not given),1.7,i,-37,-40,-11
COc1cccc(NC(=O)N[C@H]2CC[C@H](CC(=O)Nc3ccc(-c4ccccc4)cc3)O[C@@H]2CO)c1,0.0,i,-8,-17,3.1
C[C@@H]1CN([C@H](C)CO)C(=O)c2cc(NC(=O)Nc3ccc(F)cc3)ccc2O[C@@H](C)CCCCO[C@H]1CN(C)Cc1ccc(C(=O)O)cc1,2.5&-0.1,i,1&6,4&8,-0.8&0.3
C[C@@H]1CN([C@@H](C)CO)C(=O)c2cccc(NC(=O)Nc3cccc4ccccc34)c2O[C@@H]1CN(C)Cc1ccc(C(=O)Nc2ccccc2N)cc1,0.9,i,-8,-22,-0.8
CC1(NCc2ccc(Cl)cc2)COP(=O)(NCc2ccccc2)OC1 (stereo not given),1.9,i,-4,-11,5.7
C[C@@H]1CCCCO[C@@H](CN(C)Cc2ccncc2)[C@H](C)CN([C@@H](C)CO)C(=O)c2cc(NC(=O)CCC(F)(F)F)ccc2O1,-4.5,i,2,4,-1.8
COc1ccccc1CNC(=O)Nc1nnc([C@H]2C[C@H](O)[C@@H](CO)O2)s1,-0.7,i,8,10,-5.1

The final 2 compounds of the part before lead into the next:
Below each SMILES – AF4-AF9 inh	FGF22 binding	rRNA inh HTS	rRNA inh HTS OD600	rRNA inh HTS RFP
C[C@@H]1CCCCO[C@@H](CN(C)Cc2ccncc2)[C@H](C)CN([C@@H](C)CO)C(=O)c2cc(NC(=O)CCC(F)(F)F)ccc2O1
  -4.5	i	2	4	-1.8
COc1ccccc1CNC(=O)Nc1nnc([C@H]2C[C@H](O)[C@@H](CO)O2)s1
  -0.7	i	8	10	-5.1
Cc1ccccc1-c1cnc2c(c1)C(=O)N([C@H](C)CO)C[C@@H](C)[C@@H](CN(C)Cc1cncnc1)O2
  -2.0	i	7	14	-4.1
CN(C)C(=O)C[C@H]1C=C[C@H](NC(=O)Nc2cccc(F)c2)[C@H](CO)O1
  -3.4	i	2	4	-0.7
O=C(N[C@H]1CC[C@H](CCNS(=O)(=O)c2cccc(Cl)c2)O[C@@H]1CO)c1ccncc1
  0.3	i	-2	2	-0.4
O=C(Cc1ccccn1)NCC[C@H]1CC[C@H](NC(=O)c2ccccc2F)[C@@H](CO)O1
  -0.8	i	5	3	-0.7
CN1CCN(C(=O)C[C@@H]2C=C[C@H](NC(=O)c3ccc4c(c3)OCO4)[C@H](CO)O2)CC1
  -9.7	i	-5	-6	-1.3
C[C@@H]1CN([C@@H](C)CO)C(=O)c2cc(NC(=O)CCCCCC(=O)Nc3ccccc3N)ccc2O[C@H]1CN(C)S(=O)(=O)c1cccs1
  6.7	i	-6	-6	4.0
C[C@H]1CN([C@@H](C)CO)C(=O)c2cc(C#CCN(C)C)cnc2O[C@@H]1CN(C)Cc1ccccn1
  -1.7	i	3	11	0.6
CCN(CC)c1ccc(S(=O)(=O)N2CCCCC2)cc1NC(=O)CSCc1c(C)noc1C
  -4.2	i	-9	-11	5.2
CCOC(=O)/C=C(\C)Sc1cc(O)c2ccccc2c1O
  19	i	-58	-71	-12
C[C@@H]1CN([C@@H](C)CO)C(=O)c2cc(-c3ccc(F)cc3)cnc2O[C@@H]1CN(C)CC1CCCC1
  -1.8	i	9	12	2.4
OC[C@@H]1CN(Cc2ccncc2)C[C@H](n2cnc3c(N4CCN(c5ccccc5)CC4)ncnc32)O1
  0.4	i	4	-5	-0.7
C[C@H](CO)N1C[C@H](C)[C@H](CN(C)C(=O)Nc2cccc3ccccc23)Oc2ccc(NS(=O)(=O)c3ccc(Cl)cc3)cc2C1=O
  2.0	i	2	-2	5.7
O=C(Cc1cccc(NC(=O)C2CCCN(C(=O)C3CCCCC3)C2)c1)Nc1ccc(C(=O)N2CCOCC2)cc1 (stereo not given)
  -2.4	i	8	5	2.8
CCOC(=O)C1CCCN(C(=O)c2ccc(SC(F)(F)F)cc2)CC1 (stereo not given)
  -0.5	i	-16	-31	-4.7
C[C@H](CO)N1C[C@H](C)[C@H](CN(C)C(=O)NC2CCCC2)Oc2ncc(C#CCN(C)C)cc2C1=O
  -2.1	i	4	8	-3.3
C[C@@H]1CN([C@@H](C)CO)C(=O)c2cc(-c3ccc(F)cc3)cnc2O[C@@H]1CN(C)C(=O)Nc1ccccc1F
  -2.5	i	-2	7	-1.5
COc1ccc(-c2coc3c(C(=O)NCc4ccco4)cccc23)c(C)c1
  4.0	i	-10	-32	-4.0
N#Cc1cccc(-c2ccc([C@@H]3[C@H](CO)N4CCCCN(C(=O)Nc5ccccc5)C[C@@H]34)cc2)c1
  4.6	i	0	-40	-3.9
COC(=O)C[C@H]1C[C@@H]2c3cc(NC(=O)CC4CC4)ccc3O[C@@H]2[C@H](CO)O1
  -1.8	i	7	7	-3.8
C[C@H]1CN([C@@H](C)CO)C(=O)c2cccc(NS(=O)(=O)c3cn(C)cn3)c2O[C@H]1CN(C)Cc1ccncc1
  -2.6	i	1	8	-0.9
C[C@H](CO)N1C[C@H](C)[C@H](CN(C)Cc2ccc(Oc3ccccc3)cc2)Oc2ccc(NC(=O)NC3CCCCC3)cc2C1=O
  -4.6	i	-2	-6	9.1
COc1ccc(NS(=O)(=O)c2cc(NS(=O)(=O)c3cccs3)ccc2C)cc1
  -19	i	-22	-31	-0.8
O=C(NCc1ccccc1CN1CCCC1)C1CCN(C(=O)c2ccc(F)cc2)CC1
  1.5	i	4	16	-2.4
